High-throughput results as filed in PubChem BioAssay.
LASV entry inh – qHTS for Inhibitors of binding or entry into cells for Lassa Virus | Lassa virus pseudotype entry inhibition, cell reporter; control for the full effect not named in the record | Potency, µM (top dose mostly 37.9 µM), without a hit: at the highest dose activity change, negative = inhibition, most hits filed as inhibitors | hit rate 1.2% among 300,000 | AID 540256, 2011; active means well fitted inhibition curve with a large enough effect; inconclusive means small, poorly fitted or top-dose-only effect, or effect the other way; inactive means flat fitted curve, though single readings scatter; tested in HEK293 cells; further: on the % scale 0 is the no-effect control and ±100 the full control effect; nearly all actives have a fitted effect of over 50% in size; luciferase read-out
NS1 function inh – qHTS Assay for Inhibitors of Influenza NS1 Protein Function | S. cerevisiae slowed by influenza A NS1, growth recovery by OD600 | Potency, µM (highest dose often 46.1 µM), for the others: top-dose activity, positive = more growth | hit rate 0.4% among 270,000 | AID 2326, 2010; further: actives are rising curves; nearly all actives have a fitted effect of over 50% in size
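Compounds were scored for reversing the slow growth caused by influenza A NS1 in S. cerevisiae, measured by optical density at 600 nm. Assay medium contained 2% galactose at pH 6.0; NS1-free yeast of the same strain were the positive control.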
Cruzain noTriton – qHTS Assay for Promiscuous and Specific Inhibitors of Cruzain (without detergent) | hit rate 2.3% among 200,000 | Cruzipain (Trypanosoma cruzi), P25779 | purified cruzain, Z-FR-AMC fluorescence, no detergent | Potency, µM, inactives show max response, negative = inhibition, usual class: inhibitors; active means well fitted curve in the direction sought with a large enough effect; inconclusive means small, poorly fitted or top-dose-only effect, or another doubt; inactive means no such curve, though single readings can be large; an effect the other way counts as inactive or inconclusive;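 further: plate controls were enzyme without inhibitor for no effect and buffer without enzyme for full effect; nearly all actives have a fitted effect of over 40% in size; top concentration of the series not given in the record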
Target sequence (P25779 123-467 limits assumed): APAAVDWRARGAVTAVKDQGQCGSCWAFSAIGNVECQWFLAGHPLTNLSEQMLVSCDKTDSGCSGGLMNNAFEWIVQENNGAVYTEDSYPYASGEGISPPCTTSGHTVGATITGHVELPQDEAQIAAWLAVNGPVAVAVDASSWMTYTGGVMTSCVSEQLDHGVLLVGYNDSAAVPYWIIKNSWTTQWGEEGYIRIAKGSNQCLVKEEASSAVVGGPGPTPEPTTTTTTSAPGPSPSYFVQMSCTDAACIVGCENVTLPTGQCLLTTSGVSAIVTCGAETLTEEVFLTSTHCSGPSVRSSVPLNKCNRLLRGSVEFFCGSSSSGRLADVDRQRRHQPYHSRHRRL
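Detergent-free condition (0.00005% Triton X-100) in acetate buffer pH 5.5 with DTT. 1.5 nM enzyme and compound were pre-mixed 15 min, then 2 uM Z-FR-AMC substrate added; reaction progress from fluorescence change between first and third reads (60 s).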
RE007 growth inh – qHTS Assay for Inhibitors of the HIV-1 protein Vpr | AID 651644, 2012 | S. pombe RE007 Vpr strain, BacTiter-Glo ATP luminescence, 24 h; control for the full effect not named in the record | Potency, µM (top dose mostly 92.2 µM), inactives show top-dose activity change, negative = less growth | hit rate 0.21% among 360,000; active = well fitted falling curve with a large enough effect; inconclusive = small, poorly fitted or top-dose-only effect; inactive = no such curve, though single readings can be large or run the other way;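 further: on the % scale 0 is the no-effect control and ±100 the full control effect; nearly all actives have a fitted effect of over 50% in size; the assay follows cell death caused by Vpr and the record does not say whether a fall means rescue or toxicity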
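Fission yeast strain RE007, carrying one chromosomally integrated HIV-1 vpr copy, was seeded at OD 0.01 in PMG+AL medium with 23 nL pinned compound. After 24 h at 30 °C and 99% humidity, viability was read by BacTiter-Glo luminescence.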
SARS PLpro yeast – qHTS of Yeast-based Assay for SARS-CoV PLP; S. cerevisiae expressing SARS-CoV PLpro, growth rescue; control for the full effect not named in the record; Potency, µM (top dose mostly 32.9 µM), for the others: at the highest dose activity, positive = growth rescue; hit rate 0.19% among 330,000; further: 0% is about no effect; nearly all actives have a fitted effect of over 55% in size; growth read by luminescence after 48 h
Marburg entry inh – qHTS for inhibitors of binding or entry into cells for Marburg Virus. Marburg virus pseudotyped entry inhibition, cell reporter; control for the full effect not named in the record; about a third of the inactives were read at about 46 µM. Potency, µM (doses to about 37.8 µM), inactives show at the highest dose activity change, negative = inhibition, most hits filed as inhibitors. hit rate 1.8% among 300,000. AID 540276, 2011; active = well fitted inhibition curve with a large enough effect; inconclusive = small, poorly fitted or top-dose-only effect, or effect the other way; inactive = flat fitted curve, though single readings scatter; tested in HEK293 cells; about a fifth of its hits are not listed in these tables; further: on the % scale 0 is the no-effect control and ±100 the full control effect; luciferase read-out
2A StopGo – High Throughput Screening for Foot and Mouth Disease Virus Antivirals; Potency, µM (highest dose often 57.9 µM), inactives show at the highest dose signal change, negative = less light; human cells with a luciferase reporter of 2A StopGo recoding; control for the full effect not named in the record; hit rate 1.2% among 410,000; active = well fitted falling curve with a large enough effect; inconclusive = small, poorly fitted or top-dose-only effect; inactive = no such curve, though single readings can be large or run the other way; tested in HEK293T cells; further: on the % scale 0 is the no-effect control and ±100 the full control effect; nearly all actives have a fitted effect of over 45% in size; luciferase light after 4 h
Cruzain inh Det – qHTS Assay for Promiscuous and Specific Inhibitors of Cruzain (with detergent); Cruzipain (Trypanosoma cruzi), P25779; purified cruzain, Z-FR-AMC fluorescence, 0.01% Triton; Potency, µM, for the others: max response, negative = inhibition, actives largely listed as inhibitors; hit rate 0.43% among 200,000; AID 1478, 2009; active means well fitted curve in the direction sought with a large enough effect; inconclusive means small, poorly fitted or top-dose-only effect, or another doubt; inactive means no such curve, though single readings can be large; an effect the other way counts as inactive or inconclusive;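 further: plate controls were neutral wells for no effect and buffer without enzyme for full effect; nearly all actives have a fitted effect of over 40% in size; top concentration of the series not given in the record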
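Cruzain (1.5 nM) preincubated 15 min at RT with compound in 100 mM sodium acetate pH 5.5, 5 mM DTT, 0.01% Triton X-100. Reaction started with 2 uM Z-FR-AMC; AMC fluorescence (ex 360/em 450 nm) change over 60 s gave rate.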
* marks the source's active call; other numbers are inactive results; ? = inconclusive; . = no result given; & = joins results of further samples; [ ] = dose if it differs, or a comment. Unless noted, the call rests on the fitted dose curve; in most records, active means well fitted rising curve with a large enough effect; inconclusive means small, poorly fitted or top-dose-only effect; inactive means no such curve, though single readings can be large or run the other way. Potency means the concentration at half of the fitted maximal effect.

SMILES	LASV entry inh	NS1 function inh	Cruzain noTriton	RE007 growth inh	SARS PLpro yeast	Marburg entry inh	2A StopGo	Cruzain inh Det
CCN(c1ccccc1)S(=O)(=O)c1cccc(C(=O)NCC(c2cccs2)N(C)C)c1 (stereo unspecified)	-6%	-3%	.	-15%	1%	?	-11%	.
Cc1cc(C)c(S(=O)(=O)N2CCN(C(=O)C3CC3)CC2)c(C)c1	-3%	.	.	44%	0%	?	?	.
Cc1c(NC(=O)CN2C(=O)NC3(CCCC3)C2=O)c(=O)n(-c2ccccc2)n1C	4%	.	.	10%	3%	6%	11%	.
COc1ccc(C(=O)NCC(c2ccc3c(c2)OCO3)N2CCN(C)CC2)cc1OC (stereo unspecified)	18%[46.1 µM]	.	0%	.	.	.	-10%	5.7%
COC(=O)CCCC1=CC2=C(c3ccccc3)C(=O)C(C)(OC(=O)C3CCCC3)C(=O)C2=CN1CCCCO (stereo unspecified)	.	-2%	.	-14%	1%	?	18%	.
CCN(CC)S(=O)(=O)c1cccc(-c2n[nH]c(=S)n2C)c1	5%[46.1 µM]	.	.	1%	-2%	?	-8%	.
COc1ccc(CNC(=O)C2CCC(=O)N(CC3CCCCC3)C2)cc1 (stereo unspecified)	.	-2%	.	-12%	0%	.	7%	.
O=[N+]([O-])c1cc2c(cc1CNCCc1ccc3c(c1)OCO3)OCO2	?	17%	15%	-6%	-2%	19%	2%	-3.9%
CCCN(CCC)c1nc(N(CCC)CCC)[nH]c(=O)n1	-2%	.	.	-16%	4%	5%[46.1 µM]	-17%	.
Cc1ccc(F)c(NC(=O)c2cncn2-c2ccccc2)c1	1%	-3%	.	-4%	-1%	9%[46.1 µM]	-7%	.
CCOc1ccc(OCC)c(NC(=O)C2C3C=CC(O3)C2C(=O)NCc2ccco2)c1 (stereo unspecified)	4%	-6%	-6%	6%	-4%	0%	25%	-0.9%
COCCn1nnnc1C(c1ccc(Cl)cc1)N1CCN(C(=O)c2ccco2)CC1 (stereo unspecified)	3%	-11%	.	3%	-2%	?	10%	.
COc1ccc(-n2c(CNC(=O)COc3ccc(Cl)cc3)n[nH]c2=S)cc1	-1%	.	.	-10%	3%	4%[46.1 µM]	-16%	.
CCc1ccccc1NC(=O)CN1C(=O)c2cccnc2Sc2ccccc21	19%[46.1 µM]	.	-7%	.	.	.	8%	1.5%
O=C(O)COc1ccc2c(c1)OCCO2	-18%	3%	11%	0%	4%	9%	0%	-0.4%
CS(=O)(=O)N1CCc2cc(S(=O)(=O)Nc3ccc4c(c3)OCCO4)ccc21	-19%	-17%	-2%	-6%	4%	?	-21%	1.1%
O=C(CSc1ccc2nnc(CCNC(=O)c3ccc(F)cc3)n2n1)NCC1CCCO1 (stereo unspecified)	-13%	18%	.	6%	2%	7%	0%	.
O=C(C(c1ccccc1)c1ccccc1)N1CC[C@@]2(O)CCCC[C@H]2C1	-16%	-2%	.	-3%	0%	5.6µM*	-12%	.
CCOC(=O)CCC(=O)Nc1ccc(S(=O)(=O)N2CCc3ccccc32)cc1	.	12%	.	6%	-5%	.	14%	.
Cc1csc(C(=O)O)c1NC(=O)c1ccc(F)cc1	.	1%	.	4%	1%	.	-24%	.
c1ccc2[nH]c(SN3CCOCC3)nc2c1	.	-7%	-5%	.	4%	0%	.	3.7%
CCOC(=O)c1ccc(NC2c3ncccc3C(=O)N2Cc2ccc(F)cc2)cc1 (stereo unspecified)	-19%	-8%	?	0%	1%	5%	-24%	-7.1%
CCCC(C)NC(=O)Cn1c(=O)c2c(ncn2CCC(C)C)n(Cc2ccccc2)c1=O (stereo unspecified)	-23%[46.1 µM]	-3%	.	-8%	1%	-30%[46.1 µM]	11%	.
CCN(CCCNC(=O)C1CCN(S(=O)(=O)c2cnc[nH]2)CC1)c1ccccc1	-3%	-1%	-1%	6%	3%	0%	-11%	1.2%
CCNS(=O)(=O)c1cc(-c2nnc(OC)c3ccccc23)ccc1C	.	-6%	.	2%	1%	.	44%[activator]	.

A different layout for 2 compounds above:
Results follow in this order: LASV entry inh, NS1 function inh, Cruzain noTriton, RE007 growth inh, SARS PLpro yeast, Marburg entry inh, 2A StopGo, Cruzain inh Det
- CCOC(=O)CCC(=O)Nc1ccc(S(=O)(=O)N2CCc3ccccc32)cc1
→ ., 12%, ., 6%, -5%, ., 14%, .
- Cc1csc(C(=O)O)c1NC(=O)c1ccc(F)cc1
→ ., 1%, ., 4%, 1%, ., -24%, .

Further records follow:
SMILES	LASV entry inh	NS1 function inh	Cruzain noTriton	RE007 growth inh	SARS PLpro yeast	Marburg entry inh	2A StopGo	Cruzain inh Det
CCOc1ccc(N(C(=O)c2snc(C(N)=O)c2N)C(C(=O)NCC2CCCO2)c2ccco2)cc1 (stereo unspecified)	?	-3%	.	2%	6%	13µM*	-6%	.
COc1ccc(C)cc1S(=O)(=O)N(C)CC(=O)N1CCCC1	.	-7%	.	-17%	-7%	.	-3%	.
COC(=O)c1cc(S(=O)(=O)N2CCC(C)CC2)ccc1F	?	3%	-5%	5%	5%	-1%	-5%	-1.7%
CCOC(=O)C1CCCCN1C(=O)c1oc2c(Cl)cc(C)cc2c1C (stereo unspecified)	?	-29%	.	-7%	-9%	-6%	45%[activator]	.
Cc1ccc(SC(CC(=O)c2ccc(C)cc2)C(=O)O)cc1 (stereo unspecified)	-9%	-99%	2%	-9%	-2%	6%	-26%	2.6%
Cc1cc(C)c2c(=O)[nH]c(SCC(=O)c3ccc(C(C)C)cc3)nc2n1	3%	?	4%	9%	0%	-22%	-3%	-2.4%
COc1ccc(OC)c(NC(=O)[C@@H]2CCCN2C(=O)c2cccs2)c1	?	22%	-20%	-9%	1%	18%	-5%	3.5%
COc1ccccc1N(C)S(=O)(=O)c1ccc(C(=O)OC(C)C(=O)NCc2ccc3c(c2)OCO3)cc1 (stereo unspecified)	.	-15%	.	-12%	0%	.	?	.
O=C1NC(=O)N(Cc2ccc(F)cc2)C(=O)/C1=C\c1ccc(N2CCCC2)cc1	?	-1%	.	13%	0%	-8%	0%	.
CCOc1ccc(CNC(=O)C(C)n2nc(C)c3c(C)n(-c4ccccc4)nc3c2=O)cc1 (stereo unspecified)	.	16%	.	5%	1%	.	-24%	.
Cc1ccc(S(=O)(=O)CCC(=O)Nc2sccc2C#N)cc1	?	.	.	2%	1%	3%	-7%	.
CCOC(=O)c1c(NC(=O)c2noc(C)c2[N+](=O)[O-])sc(C(C)=O)c1C	5%[46.1 µM]	.	.	-15%	-2%	?	0%	.
CCCCNCc1cc(Br)c(OCC(=O)NCc2ccccc2)c(OC)c1	10%	.	.	-24%	-1%	0%[46.1 µM]	-4%	.
COc1ccc(NC(=O)c2ccco2)cc1NC(=O)c1cc(Cl)ccc1OC	-20%[46.1 µM]	.	3%	.	.	13%[46.1 µM]	-13%	-1.3%
C=CCN1C(=O)C(Cc2ccc(OC)cc2)SC1=Nc1ccc(C(=O)O)cc1 (stereo unspecified)	-4%	3%	-2%	-13%	11%	12%	-23%	-5.6%
CCOC(=O)N1CCC(NC(=O)C2CCN(S(=O)(=O)c3c(C)noc3C)CC2)CC1	-1%	?	3%	-5%	-1%	12%[46.1 µM]	-17%	2.2%
O=C(NCc1ccc2c(c1)OCO2)C(=S)N1CCOCC1	18%[46.1 µM]	21%	.	6%	0%	0%[46.1 µM]	16%	.
COc1ccc(CN2CCC(n3nccc3NC(=O)C3CCCC3)CC2)c(OC)c1	-10%	5%	.	-28%	2%	?	-14%	.
COc1ccc2oc(N)c(C=O)c(=O)c2c1	-8%	-1%	.	0%	-2%	-4%	-1%	.
CCOC(=O)C1Cc2cc3c(cc2C1=O)CC(C(=O)OCC)C3=O (stereo unspecified)	.	-3%	4%	.	-7%	-4%	.	-4.1%
COC(=O)c1cc(=O)nc2scc(C)n12	18%	?	1%	5%	10%	12%	-13%	0.2%
CCC(CC)C(=O)Nc1cccc(C(=O)N2CCOCC2)c1	-4%	3%	9%	?	11%	6%	-6%	3.6%
CCN(CC)c1ccc(CNCCc2ccccc2F)cc1	?	-3%	.	13%	0%	?	-11%	.
CC(c1ccccc1)n1cc(C(=O)NCCN2CCOCC2)nn1 (stereo unspecified)	-13%	-12%	5%	-8%	3%	-14%	12%	1.2%
Cc1[nH]c2ccccc2c1N=Nc1cccc(C(=O)O)c1	?	0%	8%	24%	14%	1%	13%	-13%

(cont.)
SMILES	LASV entry inh	NS1 function inh	Cruzain noTriton	RE007 growth inh	SARS PLpro yeast	Marburg entry inh	2A StopGo	Cruzain inh Det
Cc1c(Cl)cccc1N1CC(C(=O)Nc2nccs2)CC1=O (stereo unspecified)	1%	-3%	-5%	15%	-2%	9%	-12%	-4.4%
C1=C(CCNCc2ccccc2)CCCC1	-6%	-3%	-3%	-9%	-1%	-35%	12%	6.7%
CC(=O)Nc1ccccc1S(=O)(=O)CC1CC1(Cl)Cl (stereo unspecified)	.	-2%	.	10%	0%	.	-9%	.
CC1=CC(c2ccccc2)n2nc(NS(=O)(=O)c3ccc(C)cc3)nc2N1 (stereo unspecified)	-13%	?	?	-6%	3%	4%&2%	-22%	-17%
CC(C(=O)N1CCN(C)CC1)N1C(=O)c2ccccc2C1=O (stereo unspecified)	-8%	-15%	-5%	-4%	5%	9%	11%	4.2%
O=C(NC1(C(F)(F)F)C(=O)Nc2c1c(=O)[nH]c(=O)n2-c1ccc(F)cc1)c1ccccc1 (stereo unspecified)	-3%[46.1 µM]	.	0%	.	.	-3%[46.1 µM]	-7%	-1.2%
O=C(Nn1c(COc2ccccc2)nc2ccccc2c1=O)C(Cl)(Cl)Cl	.	-42%	.	19%	-5%	.	0%	.
COc1ccc(OC)c(NC(=O)NCCc2cccc(Cl)c2)c1	9%[46.1 µM]	2%	.	1%	0%	?	4%	.
